High-throughput results from PubChem BioAssay.
RanGTP-Impb inh: inhibitors of RanGTP-importin-beta interaction, primary screen, biochemical, FRET, CFP-Ran, YFP-importin-beta, homogeneous; actives 1.1% (n = 300,000); AID 2216; inhibition, % (no concentration beside the values); cell-free CFP-Ran/YFP-importin-beta FRET ratio;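 active = most replicates above 15%; inconclusive = exactly half above 15%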;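 also: 0% = DMSO wells and 100% = Ran loaded with GDP instead of GTP; wells of about 40 µL received 100 nL stock; the first replicate is given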
Vif TR-FRET: HIV-1 Vif–A3G interaction blockers – biochemical, TR-FRET, GST-Vif 1-94, biotin-A3G peptide, dose response retest, primary screen (AID 1117319) | TR-FRET GST-Vif / biotin-A3G peptide binding; higher % means a stronger effect; test concentration not given here; strong numbers were not always called active | inhibition, %, or IC50 in µM where a hit was titrated | actives 0.57% (n = 260,000);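 active = above the screen mean plus three standard deviations and confirmed in dose response; inconclusive = results disagree or hit not tested in dose response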;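 also: Vif residues 1-94 fused to GST binding biotinylated APOBEC3G peptide 110-148; 0% = full assay without inhibitor and 100% = GST in place of GST-Vif; retest series ran down from 100 µM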
HNF4A DNA FP: change in binding of human HNF4 alpha to DNA | P41235 | HNF4a-FITC DNA binding, fluorescence polarization, 1 h | activity change, % at 10 µM | actives 0.3% (n = 360,000); in the data active = activity change above about 30%, passing the limit was not always enough;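 also: controls were the assay level and a saturating level of protein; the project sought stronger binding though the title names inhibitors; some compounds called inactive have numbers as strong as hits; positive values seem to mean higher polarization but the record does not say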
Ecoli growth: blocks Escherichia coli growth; OD600 absorbance (test concentration not listed); actives 0.21% (n = 330,000); OD600, 23 h; hits give low values;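 active = OD600 absorbance below the run mean of sample wells minus 3.6 SD, in any replicate, cut at about 0.56 in these data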;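 also: stock transfer was 300 nL into about 60 µL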
AF4-AF9 inh: inhibitors of human MLL-AF4/AF9 interaction. P42568. AlphaScreen, biotin-AF4 peptide binding to FLAG-AF9. inhibition, % at 10 µM. actives 0.47% (n = 350,000). AID 651704;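 active = every replicate reaching a set inhibition limit, whatever the replicate mean, cut at about 25% in these data; inconclusive = mean inhibition reaches that limit but some replicates miss it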;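 also: 0% = plate neutral control median and 100% = total signal loss; the record names both 10 and 1 µM as test concentration; the first replicate is given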
Target sequence (P42568 whole entry, looked up): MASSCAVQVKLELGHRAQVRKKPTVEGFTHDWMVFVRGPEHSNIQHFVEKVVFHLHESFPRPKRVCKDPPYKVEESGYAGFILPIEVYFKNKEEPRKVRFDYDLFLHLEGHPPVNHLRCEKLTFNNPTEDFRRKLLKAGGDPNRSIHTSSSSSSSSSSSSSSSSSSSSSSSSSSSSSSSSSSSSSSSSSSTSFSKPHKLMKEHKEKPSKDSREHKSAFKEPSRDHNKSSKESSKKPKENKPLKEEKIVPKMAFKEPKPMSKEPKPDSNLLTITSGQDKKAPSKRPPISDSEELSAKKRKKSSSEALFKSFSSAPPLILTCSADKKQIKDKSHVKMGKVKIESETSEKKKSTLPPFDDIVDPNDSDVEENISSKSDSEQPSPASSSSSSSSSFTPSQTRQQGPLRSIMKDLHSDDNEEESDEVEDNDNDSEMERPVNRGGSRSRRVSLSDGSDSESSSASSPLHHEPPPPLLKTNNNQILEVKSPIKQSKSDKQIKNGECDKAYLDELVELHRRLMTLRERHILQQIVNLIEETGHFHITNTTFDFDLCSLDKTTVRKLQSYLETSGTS
UCH37 DUB inh: human UCH37 deubiquitinating enzyme inhibition; Q9Y5K5; purified proteasome/UCH37, Ub-AMC cleavage fluorescence; inhibition, % (concentration not given with the values); actives 0.33% (n = 330,000);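 active = mean of two replicates above 20%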;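 also: 0% = compound-free wells with enzyme and 100% = wells lacking proteasome; stock transfer was 100 nL into about 20 µL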
Target sequence (Q9Y5K5 whole entry, looked up): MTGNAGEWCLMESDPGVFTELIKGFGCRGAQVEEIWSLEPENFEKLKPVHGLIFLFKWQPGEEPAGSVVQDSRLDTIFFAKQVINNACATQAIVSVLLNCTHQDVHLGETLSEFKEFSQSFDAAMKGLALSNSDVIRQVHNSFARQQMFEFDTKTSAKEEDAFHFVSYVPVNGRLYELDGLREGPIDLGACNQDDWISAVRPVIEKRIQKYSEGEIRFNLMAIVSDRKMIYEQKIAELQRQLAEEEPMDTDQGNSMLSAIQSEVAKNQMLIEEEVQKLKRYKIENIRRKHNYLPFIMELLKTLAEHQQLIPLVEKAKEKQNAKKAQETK
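Test system – human UCH37 enzyme supplied as purified proteasome complex · Incubation – 30 min preincubation with enzyme, 25 min cleavage at room temperature · Detection – AMC fluorescence from Ub-AMC cleavage, excitation 355 nm, emission 460 nm · Benchmarks – no-proteasome wells (full inhibition) and compound-free wells (no inhibition)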
FGF22 binding: binders of recombinant human FGF22 by thermal shift. actives 1.5% (n = 340,000). AID 651658. calls only at 9.99 µM. SYPRO orange fluorescence; percent of sucrose octasulfate shift, DMSO zero;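 active = melting point raised past a set limit in the mean and every replicate; inconclusive = no clear call; three in four hits are not shown here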
Target sequence (Q9HCT0 whole entry, looked up): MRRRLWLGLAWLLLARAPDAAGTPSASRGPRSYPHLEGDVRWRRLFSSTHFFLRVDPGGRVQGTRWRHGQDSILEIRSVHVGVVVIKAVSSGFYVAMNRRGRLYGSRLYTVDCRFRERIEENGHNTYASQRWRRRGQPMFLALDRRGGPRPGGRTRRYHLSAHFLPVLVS
* hit, by the source's call; i = inactive; ? = inconclusive; . = not tested or not shown; & = joins results of further samples. The list is partial (hit frequency here may not be typical).

#	SMILES	HNF4A DNA FP	UCH37 DUB inh	Ecoli growth	FGF22 binding	RanGTP-Impb inh	Vif TR-FRET	AF4-AF9 inh
1	CN1CCN(C(=O)C2CCN(S(=O)(=O)c3ccc(F)cc3)CC2)CC1	-0.6	1.3	0.66	i	2.2	3%	-2.2
2	O=C(Nc1ccccc1)c1cccc(NC(=O)c2ccco2)c1	5.2	3.0	0.65	i	?	.	-1.5
3	COc1ccc(C)cc1NC(=O)C(OC(=O)c1cc(C)oc1C)c1ccccc1 (stereo unspecified)	-3.4	0.9	0.72	.	-2.4	0%	.
4	Cc1cc(C)c2nc(SCC#N)cc(C)c2c1	1.3	2.3	0.69	.	?	13%	.
5	COc1ccc(C(N)=O)cc1N	-1.7	2.1	0.68	.	2.9	-2%	.
6	COc1ccccc1CNC(=O)CCCn1nc(C)c2c(C)n(-c3ccc(C)cc3)nc2c1=O	-2.3	3.0	0.68	i	0.7	.	-1.2
7	CC(=O)c1ccccc1OCCOc1ncnc2sccc12	6.8	.	.	i	-1.1	-1%	-2.5
8	Cc1cccc(C)c1-n1nnnc1C1(C)CCC(=O)N1Cc1cccs1 (stereo unspecified)	-1.6	.	.	i	.	.	-1.3
9	CC(=O)c1sc2nsc(SCCN3CCCCC3)c2c1N	1.0	7.4	0.64	i	-15	-10%	7.7
10	COc1ccccc1NC(=O)Cc1nc(=O)[nH]c(=O)[nH]1	5.7	.	.	i	.	0%	-4.0
11	CCOC(=O)c1c(NC(=S)Nc2ccccc2)sc2c1CC(C)(C)SC2	12	-0.8	0.69	i	1.3	.	0.8
12	Cc1ccc(S(=O)(=O)/N=C(\c2ccccc2)N(C)S(=O)(=O)c2ccc(C)cc2)cc1	-1.1	.	.	.	1.3	8%	.
13	O=c1c2cnn(-c3ccccc3Cl)c2ncn1Cc1cccnc1	-0.4	0.4	0.67	i	1.7	67%	-25
14	Cc1c(Cl)cccc1NC(=S)NC(=O)CCN1C(=O)c2ccccc2C1=O	1.5	1.3	0.74	i	-4.0	14%	0.2
15	CCCCn1c(N)c(N(CC(C)C)C(=O)CSC(C)C(=O)Nc2cc(C)on2)c(=O)[nH]c1=O (stereo unspecified)	4.8	-6.6	0.71	i	2.3	-3%	0.1
16	CC(=O)c1c(C)[nH]c(C(=O)COc2cc(C)ccc2C(C)C)c1C	0.4	-2.5	0.7	.	5.7	-8%	.
17	COc1cc(OC)cc(C(=O)NC(C(=O)NCc2ccccn2)C(C)C)c1 (stereo unspecified)	-6.5	3.9	0.71	i	.	.	-1.2
18	COCCNC(=O)CN(C(=O)Cn1nnc2ccccc21)c1ccc(C)cc1	-1.8	3.4	0.7	i	-0.1	0%	1.2
19	COc1ccc(S(=O)(=O)N2CCC3(CC2)OCCN3S(=O)(=O)c2ccc(OC)cc2)cc1	-7.5	-0.1	0.68	.	5.6	-1%	-1.1
20	COc1ccc(C(C)(NC(C)=O)c2nc(-c3cc(F)cc(F)c3)cs2)cc1 (stereo unspecified)	-5.7	.	.	i	.	.	-2.5
21	CN(C)c1nc(N)nc(CSc2nnnn2C)n1	-0.5	0.7	0.72	.	5.8	3%	.
22	Cn1cc(Br)c(-c2cccc(NC(=O)CCC(=O)O)c2)n1	-4.5	1.8	0.66	i	-1.1	-3%	.
23	O=c1[nH]c(CSc2nnc(-c3ccccc3)n2-c2ccccc2)nc2ccccc12	3.9	1.4	0.7	i	1.0	8%	2.2
24	O=C(Nc1ccc(Cl)cc1)OCCN1CCOCC1	0.1	5.1	0.71	i	.	-1%	-2.6
25	O/N=C(\Cc1cscn1)c1ccc(O)cc1O	2.1	.	.	i	-1.5	6%	?

Entries from the list above that contain a Cl atom, in the order listed:
#	SMILES	HNF4A DNA FP	UCH37 DUB inh	Ecoli growth	FGF22 binding	RanGTP-Impb inh	Vif TR-FRET	AF4-AF9 inh
13	O=c1c2cnn(-c3ccccc3Cl)c2ncn1Cc1cccnc1	-0.4	0.4	0.67	i	1.7	67%	-25
14	Cc1c(Cl)cccc1NC(=S)NC(=O)CCN1C(=O)c2ccccc2C1=O	1.5	1.3	0.74	i	-4.0	14%	0.2
24	O=C(Nc1ccc(Cl)cc1)OCCN1CCOCC1	0.1	5.1	0.71	i	.	-1%	-2.6

Following part
#	SMILES	HNF4A DNA FP	UCH37 DUB inh	Ecoli growth	FGF22 binding	RanGTP-Impb inh	Vif TR-FRET	AF4-AF9 inh
26	COc1ccc(C(=O)OCC(=O)Nc2ccc(F)c(F)c2F)cc1OC	-0.8	0.3	0.75	.	5.6	1%	.
27	Cc1ccc2nc(NC(=O)/C=C/c3ccc4c(c3)OCO4)sc2c1	4.5	-9.7	0.67	.	5.3	?	.
28	CCN(CC)C(=O)C1=C(C)N(CCCN2CCCC2=O)C(=O)C(CC(=O)NC(c2ccccc2)c2ccccc2)C1 (stereo unspecified)	-0.5	.	.	i	.	.	-0.3
29	Cc1noc(C)c1COC(=O)Cc1ccc(Br)cc1	-1.5	6.5	0.7	i	-3.2	-2%	-1.8
30	O=C(NNC(=S)NCc1ccco1)c1ccc(S(=O)(=O)N2CCOCC2)cc1	-0.5	4.6	0.7	i	4.7	-1%	-8.5
31	Cc1ccc(OCc2ccc(C#N)cc2)c(C(=O)c2cc(C#N)c(=O)n(C3CC3)c2)c1	-1.6	-1.0	0.7	i	.	28%	-0.6
32	CC1CCN(C(=S)NC(=O)c2cccc([N+](=O)[O-])c2)CC1	1.5	5.3	0.7	i	-3.2	.	0.8
33	Cc1ccc(C)c(N2CCN(C(=O)CCn3c(=S)[nH]c4cc5c(cc4c3=O)OCO5)CC2)c1	2.1	0.5	0.76	.	5.7	2%	.
34	C[C@@H](NC(=O)Cn1cnc2c(OCc3ccccc3)ncnc21)c1cccc2ccccc12	6.2	0.9	0.72	i	.	-2%	-4.0
35	O=C(c1ccc(Cn2cc(Cl)cn2)o1)N1CCN(Cc2ccc3c(c2)OCO3)CC1	2.7	0.7	0.68	.	-0.1	19%	.
36	Cc1c(C(=O)NCc2ccc(F)cc2)sc(=O)n1Cc1ccc(Cl)c(Cl)c1	-3.3	.	.	i	.	.	-2.2
37	CCCOC(=O)N[C@@H]1C(=O)N2C(C(=O)OCCC)=C(C)CS[C@H]12	0.4	0.0	.	i	8.2	.	-27
38	CCN(CC)CCCC(C)NC(=O)c1ccc(C(F)(F)F)cc1 (stereo unspecified)	-1.3	2.1	0.63	.	3.4	9%	-0.1
39	Cc1ccc(C)c(Cn2c(=O)n(CCC(=O)NCc3ccco3)c(=O)c3sccc32)c1	2.9	2.4	0.73	.	?	0%&-3%	.
40	CC(C(=O)Nc1ccc(Cl)cc1)c1ncc(C(F)(F)F)cc1Cl (stereo unspecified)	-4.2	1.8	0.65	i	3.5	-1%	-25
41	COCC(=O)N1CCC(Oc2ccc(C(=O)N(C)Cc3nccs3)cc2)CC1	1.9	1.5	0.69	i	2.8	-1%	0.2
42	Cc1cccc(NC(=O)CC2S/C(=N/c3nccs3)N(C)C2=O)c1 (stereo unspecified)	27	.	.	.	-5.6	9%	.
43	O=C(N/N=C/c1cccnc1)c1cccc(NC(=O)c2ccccc2Cl)c1	-1.9	.	.	i	-3.4	.	4.5
44	Cc1ccc(C)c(NC(=O)CSc2nnc(-c3ccco3)o2)c1	-1.2	-3.0	0.75	.	-2.1	-1%	.
45	COc1cc2c(O)cc(C(=O)O)c(-c3cc(OC)c(OC)c(OC)c3)c2cc1OC	2.3	3.4	0.73	i	.	-7%	-5.8
46	CCC(CC)C(=O)c1c[nH]c(C(=O)NCc2ccco2)c1	1.4	1.0	0.63	.	7.6	3%	.
47	CC(C)c1ccc(NC2CCCN(C(=O)c3cnsn3)C2)cc1 (stereo unspecified)	-2.3	-1.8	0.69	i	-2.6	.	-6.6
48	COC(=O)c1ccsc1NC(=O)CN1CCN(Cc2ccc3c(c2)OCO3)CC1	2.8	4.4	0.72	.	0.7	-1%	.
49	COc1cccc(C(=O)N2CCN(Cc3cc(Br)ccc3OC)CC2)c1	0.7	2.1	0.7	.	.	-3%	.
50	Cc1cccc(Nc2ccc([N+](=O)[O-])cc2C(=O)O)c1	1.1	0.7	0.69	i	-1.7	15%	1.8
51	CCc1cc(CNC(=O)c2ccc(OC3CCN(C(C)=O)CC3)c(OC)c2)on1	-68	2.9	0.71	i	3.9	-1%	0.5
52	Cc1csc(NC(=O)CCC(=O)N(CC(=O)NC2CCCCC2)c2ccccc2)n1	1.0	2.7	0.65	i	?	.	0.2
53	COc1cc(/C=N/N(C)C2=NS(=O)(=O)c3ccccc32)cc(OC)c1OC	3.0	.	.	i	6.0	-11%	2.8
54	CC(OC(=O)c1cc(=O)[nH]c2ccccc12)C(=O)Nc1ccccc1F (stereo unspecified)	-5.8	.	.	i	?	.	6.1
55	CCOc1cc(NC(=S)NC)c(OCC)cc1NC(=O)c1ccc(OC)cc1	-2.8	4.3	0.7	i	?	6%	7.9
56	COc1cc(/C=C/C(=O)Oc2coc(CSc3ncccn3)cc2=O)cc(OC)c1OC	2.0	-48	0.72	i	0.4	-2%	0.7
57	O=C(N/N=C/c1coc2ccccc2c1=O)c1cccc([N+](=O)[O-])c1	-3.2	.	.	i	4.2	4%	-0.5
58	c1ccc(OCCNc2nc(NCC3CC3)nc3ccsc23)cc1	1.1	.	.	i	.	.	2.5
59	CS(=O)(=O)N(CC(=O)NC1CCCCC1)Cc1ccc(F)cc1	3.5	1.3	0.64	i	-0.5	-5%	-2.0
60	COCCNC(=O)C1(C)CCCN(C(=O)c2ccccc2C(F)(F)F)C1 (stereo unspecified)	0.8	.	.	i	.	.	-1.2
61	Cc1ccc(C)c(N2CCN(C(=O)CSc3ccsc3[N+](=O)[O-])CC2)c1	-2.2	-20	0.7	.	-1.6	23%	.
62	C=CCOc1ccc(Cl)cc1C(=O)O	-0.1	1.3	0.72	.	-1.6	6%	.
63	Cc1ccc(C)c(-c2nnc(NC(=O)c3ccc([N+](=O)[O-])o3)o2)c1	-1.6	14	0.59	i	0.0	-3%	5.0
64	CCc1cccc2c(C(=O)CSc3nnc(-c4ccoc4C)n3C)c[nH]c12	0.6	1.7	0.72	.	-1.8	1%	.
65	CCOc1ccc(CN2CCNC(=O)C2CC(=O)NCCCC2CCCC2)cc1 (stereo unspecified)	-0.1	3.4	0.69	i	0.2	-3%	-2.8
66	Nc1cc(=O)[nH]c(SCC(=O)Nc2cccc(Cl)c2)n1	-1.7	5.6	0.69	.	?	20%	.
67	Cc1cccc2nc(-c3ccco3)c(Nc3ccc4c(c3)OCCO4)n12	2.1	-45	0.69	i	-1.4	10%	-3.8
68	CC(NC(=O)COC(=O)Cn1cnc2ccccc2c1=O)C1CC2CCC1C2 (stereo unspecified)	0.1	4.8	0.68	.	3.5	7%	.
69	Cc1ccccc1NC(=O)COC(=O)c1ccc(CSc2ccc(Cl)cc2)cc1	0.1	-1.1	0.68	i	3.6	-2%	-4.3
70	Cc1ccc2c(c1)COc1c3ccc(C(=O)N4CCCCC4)cc3nn1-2	0.8	-2.8	0.7	i	-0.3	3%	-4.9
71	Cc1cc(Cl)ccc1NC(=S)NCc1ccc(S(N)(=O)=O)cc1	0.5	-1.1	0.69	i	-1.0	-6%	0.0
72	Cc1ccc(C2(C)NC(=O)N(CC(=O)N3CCc4ccccc43)C2=O)cc1 (stereo unspecified)	-3.0	2.7	0.69	i	.	4%	1.2
73	Cn1nc(C(F)(F)F)c(-c2ccc(Br)cc2)c1NC(=O)Nc1ccc(F)cc1F	-0.6	4.3	0.68	i	0.2	-7%	-1.4
74	Cc1ccc(NC(=O)CCC(=O)OCC(F)(F)C(F)F)cc1	1.5	0.4	0.63	.	-1.7	3%	.
